# Source: PubChem BioAssay (several laboratories)
# MT1-MMP act inh – blocks activation of human MT1-MMP | P50281 | HT1080 RFP-PRO-GFP cells, GFP/RFP ratio fluorescence, overnight; percent of plate control window, DMSO zero | GFP/RFP ratio change, % at 20 µM | 0.061% of 360,000 active | AID 651647;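 active = GFP/RFP ratio change of at least 30% with cell ATP level not reduced by more than half and red fluorescence within 50% of control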; note: strong numbers were not always called active
#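 Read-out: GFP/RFP fluorescence ratio; Test system: RFP-PRO-GFP reporter HT1080 cells; Compound dosing: single-point 20 µM compound, 1% DMSO; Times: overnight compound exposure at 37 °C.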
# Yeast UUG start – alters start codon recognition fidelity in yeast; S. cerevisiae UUG-firefly luciferase reporter, luminescence/redox ratio; activity score, % at 18.7 µM; 0.13% of 350,000 active;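 active = replicate mean at a twofold rise or more, about +100% in these data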;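 note: firefly luciferase made from a UUG start codon reports start codon fidelity; reporter light over untreated wells divided by growth signal over untreated wells; some hits fall short of that in this replicate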
# MT1-MMP act inh RFP – further read-out of MT1-MMP act inh, marked with its call; RFP signal change, %; measured here: RFP expression control read;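 0 = vehicle wells; hits needed this value within 50% of zero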
# * = called active by the depositor; & = joins results of further samples. Only part of the results is shown (hit frequency here may not be typical).
Molecule,MT1-MMP act inh,MT1-MMP act inh RFP,Yeast UUG start
CC(NC(=O)C1CCN(C(=O)c2ccc(F)cc2)CC1)c1ccc(-n2ccnc2)cc1 (configuration not stated),5,-3,0
Cc1ccc(CN2CC(C(=O)NCCCn3nc(C)cc3C)CC2=O)cc1 (configuration not stated),3,7,-12
COc1ccc(Br)c(C(=O)OCC(=O)NC2CC2)c1,-1,-2,-12
CCCN(CC(=O)Nc1cc(Cl)ccc1Cl)C(=O)c1ccc(N2CCCC2=O)cc1,1,-6,10
O=C(NN=Cc1ccccc1O)C(O)c1ccccc1 (configuration not stated),-1,0,-7
O=C(C[C@H]1C[C@H](C(=O)N2CCCCC2)[C@@]2(CCc3ccccc3)c3[nH]c4ccc(Cl)cc4c3CCN2C1=O)NCCN1CCOCC1,-9,-14,-1
COc1ccccc1-c1cc2nc(-c3ccccc3)cc(N3CCN(C(=O)c4ccoc4)CC3)n2n1,0,-31,3
COc1ccc(CC(=O)N2CCN(S(=O)(=O)c3ccc(Cl)s3)CC2)cc1,0,0,-17
CCCCN1CC(COCc2ccccc2)Oc2cccc(Oc3cc(C)c(C)c(C)c3)c2S1(=O)=O (configuration not stated),1,-3,5
COc1ccc2[nH]c3c(c2c1)CCN1C(=O)C(CC(=O)NCc2ccc(OC)c(OC)c2)C[C@H](C(=O)N2CCCCC2)[C@@]31CCc1ccccc1 (some centres not stated),-20,-20,1
CC1(C)CC2CC(C)(CN2C(=O)COC(=O)c2cncc(Br)c2)C1 (configuration not stated),-3,0,-2
COc1ccc(C(CNC(=O)c2ccco2)N2CCOCC2)cc1 (configuration not stated),-1,-1,-11
C[C@H](CO)N1C[C@H](C)[C@H](CN(C)S(=O)(=O)c2ccc(Cl)cc2)OCc2cnnn2CCCC1=O,1,4,-11&16
CCN(CC)S(=O)(=O)c1ccc(N2CCOCC2)c(NC(=O)CSCc2c(C)noc2C)c1,0,-6,2
CCN(C(=O)COC(=O)CCS(=O)(=O)c1ccccc1)c1c(N)n(Cc2ccccc2)c(=O)[nH]c1=O,-1,2,1

Molecule,MT1-MMP act inh,MT1-MMP act inh RFP,Yeast UUG start
CC1(Cc2ccccc2C#N)C(=O)Nc2ccc(-c3ccc4[nH]ccc4c3)cc21 (configuration not stated),-7,-13,-17
CC(=O)NC12CC3CC(C1)CC(C(=O)Nc1ccc(C)c(S(=O)(=O)N4CCCCCC4)c1)(C3)C2,12,-12,-5
O=C(CN1CCSC1=O)Nc1ccc(N2CCOCC2)cc1,0,5,-17
Cc1ccc(C(C)NC(=O)COC(=O)C2=COCCO2)cc1C (configuration not stated),0,0,5
CC1(C(=O)NS(=O)(=O)c2ccccc2)CCN1C(=O)Cc1ccccc1 (configuration not stated),-2,1,-12
CC(=O)C[C@H](O)CC(=O)[C@@H]1OC(=O)CCCCCc2ccccc21,1,4,1
O=C(O)c1ccc(-n2ncc(Cl)c(Cl)c2=O)cc1,-1,0,-25
CCN(CC(=O)Nc1ccccc1OC)C(=O)COc1ccc(C#N)cc1,3,-2,-4
O=C(COC(=O)CNC(=O)c1ccccc1F)Nc1ncc(Cl)cc1Cl,-3,4,-10
COc1cc(OC)cc(C(=O)NNC(=O)CCCOc2ccccc2)c1,-7,-5,14
C[C@@H]1CN([C@@H](C)CO)C(=O)CCCn2nncc2CO[C@@H]1CN(C)S(=O)(=O)c1ccc(Oc2ccccc2)nc1,2,3,-19&17
COc1ccc(OC)c(NC(=O)CSc2ncnc3sc(C)cc23)c1,-1,5,-13
COc1ccc(C(=O)COC(=O)/C=C/c2ccco2)cc1F,2,4,2
Cc1ccsc1CN(C)C(=O)c1cc(S(=O)(=O)N2CCOCC2)ccc1N1CCCC1,-2,-1,-2
CN(C)c1ccc(C(=O)Nc2cccc(S(=O)(=O)N3CCCC3)c2)cc1,3,-1,-8

Molecule,MT1-MMP act inh,MT1-MMP act inh RFP,Yeast UUG start
Cc1cc(=O)[nH]c(NN=C2CCCCC2C)n1 (configuration not stated),-3,9,-18
CCN(CC)C(=O)[C@H]1C[C@H](CC(=O)NC/C=C(\C)CCC=C(C)C)C(=O)N2CCc3c([nH]c4cc(CCC(=O)N(C)C)ccc34)[C@]12C,-1,-11,6
Cc1ccc(C=NNc2nc3c([nH]2)c(=O)n(C)c(=O)n3C)cc1,3,-1,-22
C[C@@H]1C(c2cccc(Cl)c2)=NN(c2ccc(Br)cc2)[C@H]1C(=O)N1CCOC1=O,0,-1,4
O=C(COC(=O)/C=C/c1cccc(Br)c1)NC1CC1,2,-1,-12
O=C(COC(=O)c1ccc([N+](=O)[O-])s1)NCCc1ccccc1,2,0,-8
CC(C)C1C(=O)N(Cc2cn(Cc3ccco3)nn2)CCS(=O)(=O)N1Cc1ccc(-c2ccc(Cl)cc2)cc1 (configuration not stated),-7,-19,-14
COc1ccc(CN(C)c2ccc(S(=O)(=O)N3CCN(C)CC3)cc2[N+](=O)[O-])cc1OC,15,-27,-12
COC(=O)N1CCCCC1c1cc(C(=O)NCc2cccnc2)no1 (configuration not stated),0,1,0
N#CCC(=O)Nc1ccc(C(=O)NNC(=S)NC2CC2)cc1,3,0,5
CC1CC(C)CN(C(=O)C(C)N2CCN(S(=O)(=O)c3ccc(C(F)(F)F)cc3)CC2)C1 (configuration not stated),-7,-11,1
Cc1noc(C)c1C(=O)Nc1nc(-c2ccc(F)c(F)c2)cs1,-4,-6,-9
COC(=O)CCc1c[nH]c2ccc([N+](=O)[O-])cc12,-1,-1,-22
CC(OC(=O)c1cc(=O)[nH]c2ccccc12)C(=O)N1C(C)CCCC1C (configuration not stated),-4,2,-3
CCCS(=O)(=O)NC(=O)C1(C)CCCN(C(=O)c2nc(C)oc2C)C1 (configuration not stated),1,4,-10

# Profiles from above. Screens in order: MT1-MMP act inh | MT1-MMP act inh RFP | Yeast UUG start
# `COC(=O)CCc1c[nH]c2ccc([N+](=O)[O-])cc12` is entered as -1 | -1 | -22
# `C[C@H](CO)N1C[C@H](C)[C@H](CN(C)S(=O)(=O)c2ccc(Cl)cc2)OCc2cnnn2CCCC1=O` is entered as 1 | 4 | -11&16

# The listing continues.
Molecule,MT1-MMP act inh,MT1-MMP act inh RFP,Yeast UUG start
O=C(COC(=O)c1ccc(S(=O)(=O)N2CCCCC2)cc1)Nc1ccccc1,-1,2,-22
CCN(CC)CCNC(=O)c1ccc(NC(=O)C2CC(=O)N(CCc3ccc(OC)c(OC)c3)C2)cc1 (configuration not stated),-2,0,-10
Cc1cc(C)nc(SCC(=O)Nc2sc3c(c2C#N)CCC(C)C3)n1 (configuration not stated),13,-10,-3
OC[C@H]1O[C@H](c2nc(-c3nc(-c4cccc(-n5cccc5)c4)no3)cs2)C[C@@H]1O,-2,-14,19
COCCN(C(=O)COC(=O)C1CC(=O)N(c2ccc(C)cc2)C1)c1c(N)n(Cc2ccccc2)c(=O)[nH]c1=O (configuration not stated),1,6,-13
COc1ccc(CN2CCN(C(=O)c3ccccc3C(=O)c3ccccc3)CC2)cc1OC,-2,1,-2
CCN(C(=O)CN1C(=O)NC2(CCC(C)CC2)C1=O)C1CCCCC1 (configuration not stated),0,-1,-11
COc1c(Cl)c(=O)oc2ccc(Cl)cc12,-2,1,-19
CCOC(=O)NC(=O)CSc1ccc(S(=O)(=O)N(C)C2CCCCC2)cn1,-2,-4,-10
c1ccc2ncccc2c1,-4,-1,-19
Cc1ccc2c(c1)C1CN(C)CCC1N2S(=O)(=O)c1cccc(F)c1 (configuration not stated),1,1,-38
COc1cc(NCCCn2cnc3c(OC)ncnc32)cc(OC)c1OC,3,3,-24
CCCn1c(N)c(N(CCOC)C(=O)c2ccc(-c3ccccc3)cc2)c(=O)[nH]c1=O,1,0,-17
CN(c1ccccc1)S(=O)(=O)c1cc(C(=O)OCC(=O)c2c(N)n(C)c(=O)n(C)c2=O)ccc1Cl,1,-1,-5
CCCCN(CCCC)Cc1cc(=O)oc2cc(OC)ccc12,-1,-3,-4

Molecule,MT1-MMP act inh,MT1-MMP act inh RFP,Yeast UUG start
CC(NC(=O)CNC(=O)c1ccc2c(c1)OCO2)c1ccc(S(N)(=O)=O)cc1 (configuration not stated),-1,3,-11
CSc1nc2ccc(NS(=O)(=O)c3ccc(CNC(C)=O)cc3)cc2s1,-1,-6,13
CCCCn1nc(C(=O)Nc2ccccc2N2CCCC2)c2ccccc2c1=O,5,-1,-10
COc1ccc(Cc2c(-c3ccc(F)cc3)nc3ccc(Cl)cn23)c(C)c1,0,3,2
O=C(c1ccc(S(=O)(=O)N2CCC(c3nc4ccccc4s3)CC2)cc1)N1CCCCC1,-6,-14,5
N#Cc1ccc(CN2CCN(C(=O)CCNS(=O)(=O)c3ccc(F)c(F)c3)CC2)cc1,0,-6,-7
CCOC(COC(=O)c1ccccc1C(=O)O)c1ccccc1 (configuration not stated),-8,1,-6
COc1ccc(CCNC(=O)COC(=O)CSc2ccc([N+](=O)[O-])cc2)cc1OC,-5,2,12
Cc1ccccc1CCNC(=O)c1cc(C2CC2)nc2c1cnn2C(C)C,1,-7,-2
C(=NN=C(NN=Cc1cccs1)NN=Cc1cccs1)c1cccs1,11,4,-6
CN(CC(=O)Nc1ccccc1Cl)C(=O)COC(=O)/C=C/c1cccs1,1,3,3
CN[C@H]1C[C@H]2c3[nH]c4ccc(-c5ccc(OC)cc5)cc4c3CCN2C(=O)[C@H]1[C@H](C)O,-5,-5,6
CCc1cccc(C)c1NC(=O)COC(=O)CCn1c(C)csc1=O,-4,3,-15
Cc1cccc(C)c1NC(=O)CN(C)C(=O)CN1C(=O)NC(C)(C)C1=O,5,1,-15
CCN(CC)S(=O)(=O)c1cc(NC(=O)C2CC(=O)N(Cc3ccccc3)C2)ccc1Cl (configuration not stated),5,-26,7

# In a second layout: 22 of the compounds above.
# Values in the order: MT1-MMP act inh	MT1-MMP act inh RFP	Yeast UUG start
CCOC(=O)NC(=O)CSc1ccc(S(=O)(=O)N(C)C2CCCCC2)cn1
  -2	-4	-10
c1ccc2ncccc2c1
  -4	-1	-19
Cc1ccc2c(c1)C1CN(C)CCC1N2S(=O)(=O)c1cccc(F)c1 (configuration not stated)
  1	1	-38
COc1cc(NCCCn2cnc3c(OC)ncnc32)cc(OC)c1OC
  3	3	-24
CCCn1c(N)c(N(CCOC)C(=O)c2ccc(-c3ccccc3)cc2)c(=O)[nH]c1=O
  1	0	-17
CN(c1ccccc1)S(=O)(=O)c1cc(C(=O)OCC(=O)c2c(N)n(C)c(=O)n(C)c2=O)ccc1Cl
  1	-1	-5
CCCCN(CCCC)Cc1cc(=O)oc2cc(OC)ccc12
  -1	-3	-4
CC(NC(=O)CNC(=O)c1ccc2c(c1)OCO2)c1ccc(S(N)(=O)=O)cc1 (configuration not stated)
  -1	3	-11
CSc1nc2ccc(NS(=O)(=O)c3ccc(CNC(C)=O)cc3)cc2s1
  -1	-6	13
CCCCn1nc(C(=O)Nc2ccccc2N2CCCC2)c2ccccc2c1=O
  5	-1	-10
COc1ccc(Cc2c(-c3ccc(F)cc3)nc3ccc(Cl)cn23)c(C)c1
  0	3	2
O=C(c1ccc(S(=O)(=O)N2CCC(c3nc4ccccc4s3)CC2)cc1)N1CCCCC1
  -6	-14	5
N#Cc1ccc(CN2CCN(C(=O)CCNS(=O)(=O)c3ccc(F)c(F)c3)CC2)cc1
  0	-6	-7
CCOC(COC(=O)c1ccccc1C(=O)O)c1ccccc1 (configuration not stated)
  -8	1	-6
COc1ccc(CCNC(=O)COC(=O)CSc2ccc([N+](=O)[O-])cc2)cc1OC
  -5	2	12
Cc1ccccc1CCNC(=O)c1cc(C2CC2)nc2c1cnn2C(C)C
  1	-7	-2
C(=NN=C(NN=Cc1cccs1)NN=Cc1cccs1)c1cccs1
  11	4	-6
CN(CC(=O)Nc1ccccc1Cl)C(=O)COC(=O)/C=C/c1cccs1
  1	3	3
CN[C@H]1C[C@H]2c3[nH]c4ccc(-c5ccc(OC)cc5)cc4c3CCN2C(=O)[C@H]1[C@H](C)O
  -5	-5	6
CCc1cccc(C)c1NC(=O)COC(=O)CCn1c(C)csc1=O
  -4	3	-15
Cc1cccc(C)c1NC(=O)CN(C)C(=O)CN1C(=O)NC(C)(C)C1=O
  5	1	-15
CCN(CC)S(=O)(=O)c1cc(NC(=O)C2CC(=O)N(Cc3ccccc3)C2)ccc1Cl (configuration not stated)
  5	-26	7

# (list continues)
Molecule,MT1-MMP act inh,MT1-MMP act inh RFP,Yeast UUG start
CSCCC(NS(=O)(=O)c1ccc2c(c1)OCCO2)C(=O)N(C)Cc1ccccc1F (configuration not stated),-1,0,-4
CC1([N+](=O)[O-])COC(C=Cc2ccccc2)OC1 (configuration not stated),0,-2,-16
Cc1nc(C)c(C(=O)OC(C)C(=O)Nc2ccc(F)cc2)s1 (configuration not stated),2,-7,-3
O=C(COC(=O)c1cccc(O)c1)Nc1ccc(S(=O)(=O)N2CCOCC2)cc1,-3,0,-20
CC1(c2ccc(OC(F)F)cc2)NC(=O)N(CC(=O)N2CCN(C(=O)c3ccco3)CC2)C1=O (configuration not stated),3,1,13
NC(=O)c1ccsc1NC(=O)COC(=O)c1ccccc1F,-3,1,-2
CCN(c1ccccc1)S(=O)(=O)c1ccc(Cl)c(NC(=O)c2ccc(=O)[nH]n2)c1,-2,-2,-16
